# V. cholerae QS = Vibrio cholerae quorum sensing activators, luminescence (AID 686977); V. cholerae quorum sensing reporter, luminescence, 6 h; higher luminescence means a stronger effect; most inactives read 0; one-dose luminescence at 50 µM unless noted; EC50 in µM for titrated hits; 9,400 tested, under 10 active;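 active means light above mean plus 3 SD and confirmed in a dose series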;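 further: raw light counts without normalisation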
# An asterisk follows results filed as active; [ ] = another dose, or the depositor's remark. These rows are one share of the data; count on the stated rates, not on these rows.
compound	V. cholerae QS
CN1CCN(CCCN2c3ccccc3Sc3ccc(S(=O)(=O)N(C)C)cc32)CC1	40[10 µg/mL]
Cc1oncc1C(=O)Nc1ccc(C(F)(F)F)cc1	0[10 µg/mL]
CN1CCC(=C2c3ccccc3CC(=O)c3sccc32)CC1	0[10 µg/mL]
CCCCOC(=O)c1ccc(N)cc1	0[10 µg/mL]
OCC(O)CN1CCN(c2ccccc2)CC1 (configuration not stated)	0[10 µg/mL]
CN(C)CCOC(=O)C(c1ccccc1)C1(O)CCCC1 (configuration not stated)	0[10 µg/mL]
CCCN(CCC)C(=O)C(CCC(=O)O)NC(=O)c1ccccc1 (configuration not stated)	160[10 µg/mL]
COc1cc(NC(=O)c2cc(C3CC3)on2)c(OC)cc1Cl	40
CC(=O)OCC(=O)[C@@]1(O)CC[C@H]2[C@@H]3CCC4=CC(=O)CC[C@]4(C)C3(F)C(=O)C[C@@]21C (some centres not stated)	0[10 µg/mL]
CC(C)(C(=O)c1cccnc1)c1cccnc1	40[10 µg/mL]
CN(C)C(=N)N=C(N)N	40[10 µg/mL]
CCN(CC)CCOC(=O)C(c1ccccc1)c1ccccc1	40[10 µg/mL]
OCCOCCN1CCN(C(c2ccccc2)c2ccc(Cl)cc2)CC1 (configuration not stated)	40[10 µg/mL]
CCC(Cc1c(I)cc(I)c(N)c1I)C(=O)O (configuration not stated)	40[10 µg/mL]
CC[C@]12CCCN3CCc4c(n(c5ccccc45)[C@@](O)(C(=O)OC)C1)[C@@H]32	0[10 µg/mL]
Cc1ccsc1/C=C/C1=NCCCN1C	0[10 µg/mL]
C#C[C@]1(O)CC[C@H]2[C@@H]3CCC4=CC(=O)CC[C@@H]4[C@H]3CC[C@@]21CC	40[10 µg/mL]
CC(C)(CO)[C@@H](O)C(=O)NCCCO	0[10 µg/mL]
CCOC(=O)Nc1ccc2c(c1)N(C(=O)CCN1CCOCC1)c1ccccc1S2	0[10 µg/mL]
O=C(c1ccccc1)c1ccc2n1CCC2C(=O)O (configuration not stated)	40[10 µg/mL]
COc1cc(C)nc(-n2nc(C)cc2OC)n1	0[10 µg/mL]

# Individual results from the results shown:
# V. cholerae QS result of CN(C)C(=N)N=C(N)N is entered as 40[10 µg/mL]
# V. cholerae QS result of CC(C)(CO)[C@@H](O)C(=O)NCCCO is entered as 0[10 µg/mL]
# V. cholerae QS result of CCC(Cc1c(I)cc(I)c(N)c1I)C(=O)O (configuration not stated) is entered as 40[10 µg/mL]

# Some of the entries so far, as labelled records:
CCOC(=O)Nc1ccc2c(c1)N(C(=O)CCN1CCOCC1)c1ccccc1S2
  V. cholerae QS: 0[10 µg/mL]
O=C(c1ccccc1)c1ccc2n1CCC2C(=O)O (configuration not stated)
  V. cholerae QS: 40[10 µg/mL]
COc1cc(C)nc(-n2nc(C)cc2OC)n1
  V. cholerae QS: 0[10 µg/mL]

# Pulled by compound from above:
compound	V. cholerae QS
COc1cc(C)nc(-n2nc(C)cc2OC)n1	0[10 µg/mL]
CN1CCC(=C2c3ccccc3CC(=O)c3sccc32)CC1	0[10 µg/mL]

# High-throughput results as filed in PubChem BioAssay.
